PK Bst: pyruvate kinase (B. stearothermophilus) modulation | AID 361 | partly purified Bacillus stearothermophilus pyruvate kinase, luminescence ATP production; ribose 5-phosphate activator present at AC10 | actives 1.2% (n = 51,000) | Potency, µM; in the data active means potency below about 11 µM; inconclusive means mostly about 12 µM to 25 µM; inactive means weaker than that;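 the screen sought inhibitors and activators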;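 further: potency means the concentration at half of the fitted maximal effect; scaled between full activation by ribose 5 phosphate and full inhibition by luteolin; about four in five hits inhibit and the cells do not say which; series up to 57 µM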
TsaE inh: displaces an ADP probe from E. coli YjeE (TsaE). purified YjeE, fluorescence polarisation of a bound ADP probe. P0AF67. actives 0.05% (n = 71,000). Potency, µM; active = well fitted falling curve; inconclusive = weaker or top-dose-only fall, or a rising curve; inactive = flat or poorly fitted curve;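 further: top concentration of the series not given in the record; excess ADP was the control for the full effect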
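Purified YjeE (10 uM) with BODIPY Texas Red-labeled ADP probe (2 uM); compounds pin-transferred, 15 min at room temperature. Binding inhibition read as decreased fluorescence polarization; ADP titration as control.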
* = called active by the depositor; i = inactive; u = inconclusive; x = no result given.

TsaE inh | PK Bst | Compound
i | >57 | COc1cc2c(cc1OC)C(c1cccc(OC)c1OC)CC(=O)N2 (stereo not drawn)
i | >57 | O=C(CSc1nnc(Cc2cccs2)n1C1CCCCC1)N1CCN(C(=O)c2ccco2)CC1
i | >57 | CCOc1ccc(NC(=O)N(CCC(C)C)C(C)c2ccco2)cc1 (stereo not drawn)
i | >57 | COc1ccc(CNc2nc3nc(C)cc(C)n3n2)cc1OC
i | x | CCN(Cc1ccccc1)Cc1cc(OC)cc(OC)c1
i | >11 | CCOC(=O)c1c(N)sc2c1CCS(=O)(=O)C2
i | >57 | CCN(CC)CC(=O)N(CC(=O)Nc1c(C)cc(C)cc1C)C1CCCCC1
i | >57 | CSc1nnc(-c2ccccc2)n1C
i | x | CCCCCCCCCCCCCCCC(=O)NC(C)C
i | x | CCn1nc(C(=O)OCC(=O)c2cc(C)n(Cc3cccs3)c2C)c2ccccc2c1=O

(listing goes on)
TsaE inh | PK Bst | Compound
i | x | Cc1noc(C)c1-c1cc(NC2CC2)ncn1
i | >57 | CCOC(=O)N1CCN(C(=O)c2ccc(C)c(S(=O)(=O)Nc3cccc(C)c3C)c2)CC1
i | 5.1* | NC(=O)c1ccc(-c2ccc(Br)cc2)o1
i | x | O=S(=O)(c1cccc2nsnc12)N1CCCC1
i | x | CC(=O)Nc1nc(-c2ccc(Cl)cc2)nc(C)c1C(C)=O
i | >57 | O=C(COC(=O)COc1ccc(Nc2ccccc2)cc1)NCc1ccco1
i | x | CCOc1ccc(C2Oc3nc(SC)nnc3-c3ccccc3N2C(C)=O)cc1OC (stereo not drawn)
i | >57 | CCCC(C)C1C(C#N)=C(N)Oc2cc(C)oc(=O)c21 (stereo not drawn)
i | >57 | CC1CCCCC1NC(=O)C1CCN(S(=O)(=O)N2CCOCC2)CC1 (stereo not drawn)
i | >57 | Nc1ccc2c(C(F)(F)F)cc(=O)oc2c1

Going on with the list.
TsaE inh | PK Bst | Compound
i | >57 | C=CCNC(=O)C1CCN(S(=O)(=O)c2ccccc2)CC1
i | >57 | CCOC(=O)N1CCN(Cc2nc3c(c(=O)n(C)c(=O)n3C)n2Cc2cc(C)ccc2C)CC1
i | >57 | Cc1cc(NC(=O)COC(=O)C2CCN(S(=O)(=O)c3ccc(Cl)cc3)CC2)no1
i | >57 | C=CCN(CC=C)S(=O)(=O)c1ncn[nH]1
i | i | CC(C)CC1NC(=O)N(CC(=O)N2CCN(S(=O)(=O)c3ccc(Cl)cc3)CC2)C1=O (stereo not drawn)
i | >57 | Cc1oc(-c2ccccc2F)nc1CSCC(=O)NCc1ccc2c(c1)OCO2
i | >57 | O=C(N1CCOCC1)N1CCN(S(=O)(=O)N2CCCCC2)CC1
i | >57 | CN1CCN(c2ccc(NC(=O)COc3ccccc3Cl)cc2)CC1
i | >57 | Cc1ccc(S(=O)(=O)N2CCCC2C(=O)N2CCCCCC2)cc1 (stereo not drawn)
i | >57 | CSC(=NCCCN1CCOCC1)NS(=O)(=O)c1cccs1

Next section.
TsaE inh | PK Bst | Compound
i | >57 | O=C(O)CCn1c(=O)c2ccccc2c2ccccc2c1=O
i | >57 | Fc1ccc2nc3n(c2c1F)CCCCCC3
i | >57 | CCOP1(=O)C=C(C(C)(C)C)OC1c1ccc(F)cc1 (stereo not drawn)
i | >57 | NC(=O)C1(N2CCCCC2)CCN(Cc2ccccc2Cl)CC1
i | >57 | Cc1cccc2cc(CN(CCCN3CCOCC3)Cc3nnnn3C(C)(C)C)c(=O)[nH]c12
i | >57 | CN(C)CCNC(=O)Cn1nc(-c2ccc(Cl)cc2)ccc1=O
i | >57 | O=C(N1CCC(O)(c2cccnc2)CC1)C12CC3CC(CC(C3)C1)C2
i | >57 | Cn1nnc(C(O)CN2CCOCC2)n1 (stereo not drawn)
i | >57 | Cc1ccc(C)c(C(=O)CCC(=O)Nc2cccnc2)c1
i | >57 | COc1cc(OC)c(C(=O)NC2CCCCCC2)cc1OC

Other compounds follow.
TsaE inh | PK Bst | Compound
i | >57 | Cc1cc(C(F)F)n2nc(C(=O)Nc3ccc(F)cc3F)nc2n1
i | >57 | OCCNc1nc(C2CC2)nc2c1nnn2Cc1ccccc1Cl
i | >57 | CCOC(=O)CNC(=O)Cn1cnc2c(nnn2-c2ccc(C)cc2)c1=O
i | >57 | N#Cc1cccc(-n2nnnc2-c2ccccn2)c1
i | >57 | COc1ccc(S(=O)(=O)N2CCC(C(=O)NCCc3ccc4c(c3)OCO4)CC2)cc1
i | >57 | Cn1c(=O)cc(SCC(=O)N2CCN(c3ccccn3)CC2)c2ccccc21
i | >57 | Fc1cccc(Cl)c1Cn1nnc2c(-n3ccnc3)ncnc21
i | >57 | CCOC(=O)C1(CC)NC(c2ccc(N(C)C)cc2)C2C(=O)N(C)C(=O)C21 (stereo not drawn)
i | x | Cn1cc(S(=O)(=O)NCc2ccco2)c(=O)n(C)c1=O
i | >57 | CCCC(=O)N1CC2(CCC)CN(C(=O)CCC)CC(CCC)(C1)C2=O

Following part.
TsaE inh | PK Bst | Compound
i | >57 | CC(=O)N1CCCc2cc(S(=O)(=O)NCCC3=CCCCC3)ccc21
i | x | CCC/C=C(\CCC)C(NC(=O)c1ccccc1)c1ccccc1 (stereo not drawn)
i | >57 | CC1C(C#N)=C(N)OC2=C1C(=O)CCC2 (stereo not drawn)
i | >57 | CCCCNC(=O)CC(=O)Nc1ccccc1C(=O)O
x | >26 | O=C(Oc1oc(-c2ccco2)nc1C=Nc1ccccc1)c1ccoc1
i | >57 | CCc1ccc(NC(=O)CSc2nnc(CNC(=O)c3c(F)cccc3Cl)o2)cc1
i | >57 | Cc1cc(NC(=O)CSc2nc3ccccc3n2CC(=O)N2CC(C)CC(C)C2)no1 (stereo not drawn)
i | >57 | CCCCOc1ccc(Cl)cc1CSc1nnc(C)n1N
i | >57 | CSc1nc(C)cc(OCC(=O)n2nc(C)cc2C)n1
i | x | COc1ccc(-c2nc3cnc(N4CCN(C)CC4)nc3n(-c3ccc(OC)cc3)c2=O)cc1

(next part)
TsaE inh | PK Bst | Compound
i | x | Cc1ccc(-c2nc(CS(=O)CC(=O)NC3CCC(C)CC3)c(C)o2)cc1 (stereo not drawn)
i | x | C=C(C)COc1ccc2oc(C)c(C(=O)OCCOC)c2c1
i | >57 | COc1ccc(OC)c(S(=O)(=O)NCCO)c1
i | >57 | CC12CC3CC(C)(C1)CC(C(=O)Nc1nn[nH]n1)(C3)C2
i | >57 | COC(=O)c1sccc1NC(=O)CSc1nnnn1-c1ccccc1F
i | 9.7* | O=C(Nc1cccc2cccnc12)c1cccnc1
i | >57 | CC[N+](CC)(CC)C/C(N)=N/O
i | x | COc1ccc(Cc2nc(-c3cccs3)no2)cc1OC
i | >57 | CC(=O)OCC1OC(n2ccc(=O)[nH]c2=O)C(O)C1O (stereo not drawn)
i | >57 | COc1ccc(NC(=O)c2ocnc2C)cc1OC

(listing goes on)
TsaE inh | PK Bst | Compound
i | >57 | Cc1nn2c(-c3cccc(NC(=O)c4ccco4)c3)nnc2c2ccccc12
i | x | CCOC(=O)C1=C(N)OC2=C(C(=O)CCC2)C1c1ccc(C)s1 (stereo not drawn)
i | x | O=C1c2ccccc2C(=O)N1CSc1ncccn1
i | >57 | COc1ccccc1NC(=O)N1CCCC1C(=O)NC12CC3CC(CC(C3)C1)C2 (stereo not drawn)
i | x | O=C=Nc1ccc(Cc2ccc(N=C=O)cc2)cc1
i | >57 | CCN1C(=O)C(C(=O)Nc2ccc(OC)cc2)C2CC1(C)Oc1ccccc12 (stereo not drawn)
i | >57 | Cc1ccc(CNC(=O)c2cccc(OCc3c(C)noc3C)c2)cc1
i | x | CCOC(=O)CN1CC23C=CC(O2)C(C(=O)Nc2cc(OC)ccc2OC)C3C1=O (stereo not drawn)
i | >57 | CCNS(=O)(=O)c1ccc(OC)c(C)c1
i | x | O=C(OCC(=O)c1c[nH]c2ccccc12)C1=COCCO1

Continued:
TsaE inh | PK Bst | Compound
i | >57 | COc1ccc(C2C(C(=O)N3CCCC3)CC(=O)N2c2ccc(OC)cc2)cc1 (stereo not drawn)
i | x | O=c1c(-c2ccc(Cl)cc2)nc2cnc(N3CCOCC3)nc2n1-c1ccccc1
i | >57 | O=c1ccn(Cc2ccccc2)c(=O)n1Cc1ccccc1
i | >57 | CCC(=O)N1CCc2cc(Br)cc(S(=O)(=O)N3CCN(C(=O)c4ccco4)CC3)c21
i | x | O=C(c1ccc(COc2ccccc2Br)o1)N1CCCCCC1
i | >57 | CCC(C(=O)NC1CCCC1)N(Cc1ccc2c(c1)OCO2)C(=O)c1snc(C(N)=O)c1N (stereo not drawn)
i | i | Cc1ccc(-c2nc3nc4ccccc4nc3n2Cc2ccco2)cc1
i | >57 | COc1nc(/C(N)=N/O)nc(N2CCCCC2)n1
i | x | COc1ccc(S(=O)(=O)NCCCN2CCOCC2)c2ccccc12
i | x | COc1ccccc1-c1cncnc1Nc1ccc(F)cc1

(list continues)
TsaE inh | PK Bst | Compound
i | >57 | Cc1ccc(Cn2nnc3c(=O)n(CC(=O)NCc4ccco4)cnc32)cc1
i | >57 | CC(=O)NCc1nc2ccccc2n1Cc1ccccc1F
i | x | COc1cccc(-c2nc(CS(=O)(=O)CC(=O)NCc3ccccc3OC)c(C)o2)c1
i | >57 | O=C1c2oc3ccccc3c(=O)c2C(c2ccccn2)N1Cc1ccccc1 (stereo not drawn)
i | x | CCCCCCc1ccc(-c2ncc(N)cn2)cc1
i | >57 | CCOC(=O)c1ccc(Cn2c(-c3ccccc3)nnc2-c2ccccc2)o1
x | >26 | CN(C)c1nc(OCCNC(=O)Nc2ccccc2)nc(N(C)C)n1
x | >26 | CCOC(=O)c1sc(-n2[nH]c(C)cc2=O)nc1C
i | x | CC/C=C1/OC(=O)c2ccccc21
i | >57 | CSc1ncccc1C(=O)OCC(=O)NC1CCS(=O)(=O)C1 (stereo not drawn)

PK Bst: hit marks shown above
TsaE inh | PK Bst | Compound
i | 5.1* | NC(=O)c1ccc(-c2ccc(Br)cc2)o1
i | 9.7* | O=C(Nc1cccc2cccnc12)c1cccnc1

(continued)
TsaE inh | PK Bst | Compound
u | >57 | Cc1ccc(/C=C/C2=Cc3c(sc(NC(=O)CSc4n[nH]c(N)n4)c3C#N)C(C)(C)C2)o1
i | >57 | O=C(O)CNS(=O)(=O)c1ccc(Br)s1
i | x | COc1ccccc1C1(CC(=O)O)CCOC(C)(C)C1 (stereo not drawn)
i | >57 | COc1cc(OC)cc(C(=O)N2CCN(c3ccccc3F)CC2)c1
i | x | CC1CCN(c2c(NCc3ccc(C(=O)N4c5ccccc5CC4C)cc3)c(=O)c2=O)CC1 (stereo not drawn)
i | >57 | COc1ccc(-c2nc(C#N)c(N3CCN(c4cccc(Cl)c4)CC3)o2)cc1OC
i | u | CC1(C)N=C(c2ccc(Cl)cc2Cl)C(=O)N1
i | x | CC(=O)NC(c1ccco1)c1ccc2cccnc2c1O (stereo not drawn)
i | >57 | Cc1nc2c(oc3ccccc32)c(=O)o1
i | >57 | CCOC(=O)c1[nH]c(C)c(C(=O)Nc2ccc3c(c2)OCCO3)c1C

Given with two lines to a compound: six of the compounds above
Below each compound – TsaE inh, PK Bst
- O=C(O)CNS(=O)(=O)c1ccc(Br)s1
    i, >57
- COc1ccccc1C1(CC(=O)O)CCOC(C)(C)C1 (stereo not drawn)
    i, x
- COc1cc(OC)cc(C(=O)N2CCN(c3ccccc3F)CC2)c1
    i, >57
- CC1CCN(c2c(NCc3ccc(C(=O)N4c5ccccc5CC4C)cc3)c(=O)c2=O)CC1 (stereo not drawn)
    i, x
- COc1ccc(-c2nc(C#N)c(N3CCN(c4cccc(Cl)c4)CC3)o2)cc1OC
    i, >57
- CC1(C)N=C(c2ccc(Cl)cc2Cl)C(=O)N1
    i, u

(listing goes on)
TsaE inh | PK Bst | Compound
i | x | Cn1c(=O)c2[nH]c(CCS)nc2n(C)c1=O
i | >57 | CCOC(=O)N1CCC(N(CCOC)C(=O)Nc2ccc(CC)cc2)CC1
i | x | Cc1ccc(-n2c(C)nc3c(cnn3-c3ccc(F)cc3)c2=O)cc1
i | x | COC(=O)c1ccccc1NC(=O)c1noc2c1CCCC2
i | >57 | COCCCn1cnc2c(c1=O)c1nc3ccccc3nc1n2-c1ccccc1
i | >57 | Cc1ccnc(SCC(=O)Nc2sc3c(c2C#N)CCCC3)n1
i | x | CCOC(=O)CSc1nc(C)c2cc(OC)ccc2n1
i | x | CCCCOc1ccc(/C(O)=C2/C(=O)C(=O)N(CCCOC)C2c2ccncc2)cc1C (stereo not drawn)
i | >57 | CCCCn1c(SCC(N)=O)nnc1-c1ccco1
i | >57 | COC(=O)c1ccc(NC(=O)CN(c2ccc(OC)cc2)S(C)(=O)=O)cc1

Going on with the list.
TsaE inh | PK Bst | Compound
i | x | C[C@H]1C[C@@H]2[C@H]3CCC4=CC(=O)C=C[C@@]4(C)[C@]3(Cl)[C@@H](Cl)C[C@]2(C)[C@]1(O)C(=O)COP(=O)(O)O
i | i | O=C(CN1CCOCC1)Nc1ccc(-c2nc3ccccc3[nH]2)cc1
i | >57 | O=C(NCc1ccccn1)C(C(=O)c1ccc(F)cc1)n1ccccc1=O (stereo not drawn)
x | >26 | COc1cc(C(=O)Nc2ccccn2)cc(OC)c1OC
i | >57 | CCOC(=O)Cc1csc(NC(=O)CCc2ccc(S(=O)(=O)N3CCOCC3)cc2)n1
i | >57 | Fc1ccccc1Cn1nnc2c(-n3ccnc3)ncnc21
i | x | Cc1cc(Cl)ccc1OCC(=O)NCCC(=O)O
i | >57 | O=C(CSc1nnc2scc(-c3ccccc3)n12)NCc1ccc2c(c1)OCO2

Source: PubChem BioAssay (National Center for Advancing Translational Sciences (NCATS))

An excerpt, so the mix of outcomes need not match the whole.
